KCNQ2 block: KCNQ2 potassium channel inhibitors, primary screen, cell-based, CHO-K1, FluxOR thallium flux, B-score (AID 2156) | O88943 | 20 min; active compounds read low; only compounds with negative scores are shown here; some inactives read as strong as hits | B-score at 10 µM | hit rate 1.1% among 310,000;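 active = fluorescence ratio B-score at most minus 3 library SDs, with starting brightness B-score within 2 library SDs, cut at about -5.5 in these data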
Target sequence (O88943 whole entry, looked up): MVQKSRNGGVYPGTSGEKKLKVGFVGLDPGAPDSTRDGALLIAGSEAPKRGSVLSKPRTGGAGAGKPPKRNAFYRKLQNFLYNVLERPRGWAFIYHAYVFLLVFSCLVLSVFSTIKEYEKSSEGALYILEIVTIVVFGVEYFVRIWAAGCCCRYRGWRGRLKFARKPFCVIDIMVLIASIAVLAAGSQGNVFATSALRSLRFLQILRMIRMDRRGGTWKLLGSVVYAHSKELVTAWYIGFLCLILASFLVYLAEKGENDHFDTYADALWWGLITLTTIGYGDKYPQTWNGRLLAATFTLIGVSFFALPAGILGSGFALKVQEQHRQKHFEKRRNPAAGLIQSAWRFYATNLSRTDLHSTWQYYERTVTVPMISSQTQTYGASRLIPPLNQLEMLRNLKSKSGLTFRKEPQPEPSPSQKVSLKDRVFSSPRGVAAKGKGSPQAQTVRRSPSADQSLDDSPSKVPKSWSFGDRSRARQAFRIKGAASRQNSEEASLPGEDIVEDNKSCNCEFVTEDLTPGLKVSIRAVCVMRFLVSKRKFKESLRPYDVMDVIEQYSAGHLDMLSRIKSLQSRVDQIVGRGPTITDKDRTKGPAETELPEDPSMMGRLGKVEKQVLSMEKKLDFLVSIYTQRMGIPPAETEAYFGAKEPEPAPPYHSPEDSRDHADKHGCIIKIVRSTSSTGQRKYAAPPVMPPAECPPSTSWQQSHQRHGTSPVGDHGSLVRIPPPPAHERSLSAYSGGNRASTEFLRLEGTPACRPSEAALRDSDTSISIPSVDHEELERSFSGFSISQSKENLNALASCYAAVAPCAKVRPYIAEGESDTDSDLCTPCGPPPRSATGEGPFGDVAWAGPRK
KCNQ2 block baseline: second read-out of KCNQ2 block, no call of its own (marks repeat the call); B-score; measured here: initial fluorescence intensity artifact check;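 brightness before thallium and not channel activity; 0 = typical well and far values either way flag optical interference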
Active calls of the source: *; i = inactive.

KCNQ2 block,KCNQ2 block baseline,molecule
i,1.56,CCN(Cc1ccncc1)C(=O)c1cc(COc2ccc(F)cc2F)on1
i,1.2,CCOC(=O)c1c(C)[nH]c(C(=O)NCc2ccccn2)c1C
i,2.27,COc1ccccc1/C=C/c1nc(S(=O)(=O)c2ccccc2)c(N(C)C)o1
i,-0.9,CC[C@@]12C(=O)N(c3ccc(OC)cc3)C(=O)N1[C@H](c1cccc(C)c1)[C@@H]1C(=O)N(Cc3ccccc3)C(=O)[C@@H]12
i,-0.85,COC(=O)c1ccccc1OC(=O)c1cc[n+]([O-])cc1
i,1.06,Cc1ccc2c(c1)N(CC(=O)Nc1c(C)cccc1C)C(=O)c1cccnc1O2
i,-0.15,CCn1c(SCc2ccc(C(=O)OC)o2)nnc1-c1c[nH]c2ccccc12
i,0.14,CC1C(=O)Nc2ccccc2N1C(=O)c1cccc(C(F)(F)F)c1 (configuration not stated)
i,-1.69,COc1ccc(CCNc2cc(N3CCN(C(=O)c4ccc(C)cc4)CC3)ccc2[N+](=O)[O-])cc1OC
i,-0.67,O=C(CSC1=NS(=O)(=O)c2cc(F)ccc2N1)NCc1ccc(F)cc1
i,-0.03,O=C(Cn1ncc2c(=O)oc3ccccc3c21)Nc1nc2ccccc2s1
i,0.16,CCn1c2ccccc2c2nnc(SCC(=O)Nc3ncccn3)nc21
i,-2.99,O=C(N1CCCCC1)N1CCN(S(=O)(=O)c2cccc([N+](=O)[O-])c2)CC1
i,1.31,c1ccc(-n2ncc3c(N4CCCCC4)ncnc32)cc1
i,-0.82,C/C(=N\NC(=O)C1COc2ccccc2O1)c1cc2ccccc2o1 (configuration not stated)
i,-1.67,COCCNc1ccc(N2C(=O)CCCC2=O)cc1[N+](=O)[O-]
i,-0.81,COc1ccc(-c2nnc(OCc3nc4ccccc4n3C)c3ccccc23)cc1
i,-0.12,COc1ccc(/C=N/NC(=O)CN(Cc2ccccc2)S(=O)(=O)c2ccc3c(c2)OCCO3)cc1
i,-1.76,CCCc1c(C(=O)NNc2cc(C(F)(F)F)ccc2Cl)cnn1-c1ccccc1
i,1.02,COCCCn1c(-c2ccsc2)nc2c1c(=O)[nH]c(=O)n2Cc1ccccc1
i,0.17,CSc1ccc(/C=C(/NC(=O)c2ccco2)C(=O)N2CCOCC2)cc1
i,1.7,CCc1ccc(Cn2nnc(C(=O)NCc3ccccc3OC)c2N)cc1
i,0.38,Cc1cc(=O)oc2cc(OCC(=O)N3CCC(C(N)=O)CC3)ccc12
i,-0.19,CCCCCN(C(=O)CCC(=O)OC(C)C(=O)NC1CCCCC1)c1c(N)n(CCCC)c(=O)[nH]c1=O (configuration not stated)
i,-0.05,Fc1cccc(Cl)c1CNCc1ccccc1Cl

More records:
KCNQ2 block,KCNQ2 block baseline,molecule
i,-0.96,CCCNC(=O)NC(=O)COC(=O)CNS(=O)(=O)/C=C/c1ccccc1
i,-0.3,O=C1/C(=C/c2cccc([N+](=O)[O-])c2)CCc2ccccc21
i,3.93,CN(C)CCNC(=O)C1CCCNC1=O (configuration not stated)
i,-2.77,CC(C)CNS(=O)(=O)c1ccc(S(=O)(=O)N2CCN(CCC#N)CC2)cc1
i,0.53,COC(=O)C1CCN(C(=O)Cc2c(OC)ccc3cc(Br)ccc23)CC1
i,-1.55,CCN(CC)C(=O)CSc1nnc(SCc2ccc(Cl)cc2)s1
i,0.16,Brc1ccc(Nc2nc3ccccc3n3nnnc23)cc1
i,-1.42,CCOC(=O)C1(S(=O)(=O)c2ccc(Cl)cc2)CCN(Cc2ccc(C)cc2)CC1
i,0.53,C=CCNC(=O)c1ccc(Sc2ccc(C)cc2)c([N+](=O)[O-])c1
i,-2.97,CCCCOc1ccc(OCCCC)c2c1NC1(N2)C(=O)N(C(C)=O)c2ccccc21
i,2.09,Cc1cc2c(c(=O)n1Cc1ccc3c(c1)OCO3)C(c1cccnc1)C(C#N)=C(N)O2 (configuration not stated)
i,1.7,S=C(Nc1ccc(Br)cc1Cl)N1CCN(c2ccccn2)CC1
i,0.73,CCOC(=O)Cn1c(=O)oc2cc(S(=O)(=O)N3CCn4c3nc3ccccc34)ccc21
i,-0.53,O=C(Cc1ccccc1)NCc1ccccn1
i,0.52,O=C(NCC1CCCN(C(=O)Cc2ccccc2Cl)C1)c1ccc(F)cc1 (configuration not stated)
i,-0.14,COc1ccccc1NS(=O)(=O)c1ccc(Br)s1
i,-0.4,COc1cc(C(=O)NC2CCN(Cc3ccccc3)CC2)cc(Cl)c1OC
i,0.52,COc1ccc(N2CCN(C(=O)c3ccccc3NC(=O)c3ccccc3)CC2)cc1
i,-0.11,CCOc1ccc(NC(=O)CN(c2ccc(C)cc2)S(=O)(=O)c2c(C)nn(C)c2C)cc1
i,0.56,CC1CN(CCOCCOc2ccccc2-c2ccccc2)CC(C)O1 (configuration not stated)
i,1.24,CSc1ncccc1C(=O)OCC(=O)N1CCN(S(=O)(=O)c2ccc(C)cc2C)CC1
i,0.04,Cc1nc2ccccc2c(=O)n1/N=C/c1ccc(F)cc1
i,0.06,CCc1ccc(NC(=O)Cn2ccn(-c3cccc(Cl)c3)c(=O)c2=O)cc1
i,1.68,Cc1ccc(C(c2sc3nc(C)nn3c2O)N2CCN(CCO)CC2)cc1 (configuration not stated)
i,-0.17,CCN(CC(=O)Nc1c(F)cccc1F)C(=O)c1ccc(NC(=O)CC2SC(N3CCCC3)=NC2=O)cc1 (configuration not stated)

The results go on.
KCNQ2 block,KCNQ2 block baseline,molecule
i,3.31,CCN1C(=O)/C(=C/C=C2\N(CC)c3cc(S(=O)(=O)N(C)C)ccc3N2c2ccccc2)SC1=S
i,-0.57,O=C(CSc1nnc(-c2ccc(C(F)(F)F)cn2)o1)Nc1cccc(Cl)c1
i,-1.7,COc1cccc(C(=O)NCC(c2ccco2)N2CCc3ccccc3C2)c1 (configuration not stated)
i,-0.93,COc1cc(C(=O)Oc2cccc(C(=S)N3CCOCC3)c2)cc(OC)c1OC
i,-1.26,Cc1cccc(CSCCNC(=S)Nc2ccccc2)c1
i,0.55,CCOc1ccccc1N1CCN(C(=O)C(Sc2ccccc2)c2ccccc2)CC1 (configuration not stated)
i,-1.33,Nc1cc(C(=O)N2CCN(c3ccc([N+](=O)[O-])cc3)CC2)ccc1N1CC2CC(C1)c1cccc(=O)n1C2 (configuration not stated)
i,0.02,CN(C)c1nc(-c2ccccc2)ncc1S(=O)(=O)c1ccccc1
i,-0.81,Nc1sccc1C(=O)c1ccc(Cl)cc1
i,3.02,N#C/C(=C\c1cccs1)C(=O)Nc1ccccn1
-6.37*,-0.42*,N#C/C(=C\c1cccc(Oc2ccccc2)c1)C(=O)N1CCOCC1
i,-1.68,CC(C)NC(=O)COC(=O)c1ccc(NS(=O)(=O)c2ccc3c(c2)OCCO3)cc1
i,-0.36,CC(=O)Nc1ccc2c(c1)nc(C)n2-c1ccccc1
i,-0.55,C=CCn1c(C)cc(C(=O)COC(=O)/C=C/c2cccc(OC)c2)c1C
i,-0.77,CC(=O)Nc1ccc(C(=O)Nc2cc(C)on2)cc1
i,0.41,O=C(CCl)N(Cc1cc(=O)[nH]c2ccccc12)c1ccccc1
i,-0.03,O=C(NC(=S)Nc1ccccc1F)C1CCCCC1
i,-1.94,CS(=O)(=O)NN1C(=O)c2ccccc2NC1c1c[nH]c2ccccc12 (configuration not stated)
i,2.47,CO/N=C/C1CCN(c2ncc(C(F)(F)F)cc2Cl)C1=O (configuration not stated)
i,1.62,O=C(Oc1ccc(OC(=O)c2ccco2)c(S(=O)(=O)c2ccc(Br)cc2)c1)c1ccco1
i,0.52,COc1ccc(C(C)=O)c(OC(=O)c2ccc(OC)c(OC)c2)c1
i,-0.07,Cc1nnc2sc(-c3ccc(NC(=O)c4ccc(-c5ccc(Cl)cc5Cl)o4)cc3)nn12
i,1.48,O=C(NCCCn1ccnc1)c1cc(Br)c(Br)s1
i,0.23,COc1cccc(CCc2nnc(CCC(=O)NC(C)Cc3cccs3)o2)c1 (configuration not stated)
i,-1.48,c1ccc(-c2nnc(-c3ccncc3)nc2-c2ccccc2)cc1

Other results:
KCNQ2 block,KCNQ2 block baseline,molecule
i,0.2,CN(C)C(=O)Cn1c(=O)n(S(=O)(=O)c2ccccc2)c2ccccc21
i,-0.73,O=S(=O)(c1ccc(F)cc1)N1CCN(Cc2ccccc2C(F)(F)F)CC1
i,1.77,CC(NCc1ccccc1)C1COc2ccccc2O1 (configuration not stated)
i,0.58,C=CCNC(=O)c1onc(CSc2ccc(F)cc2)c1C(=O)NCC=C
i,0.03,CC(C)CC(C(=O)Nc1oc(-c2ccccc2)c(-c2ccccc2)c1C#N)N1C(=O)c2ccccc2C1=O (configuration not stated)
i,-0.99,Cn1nnc2c(NCc3ccco3)nccc21
i,-0.5,Cn1c(=O)oc2cc(S(=O)(=O)N3CCCC(C(=O)NC4CCCc5ccccc54)C3)ccc21 (configuration not stated)
i,1,CC1Cc2ccccc2N1C(=O)COC(=O)c1ccc(Br)o1 (configuration not stated)
i,0.11,CCn1cc(C(=O)N2CC(C)CC(C)C2)c(=O)c2cc(S(=O)(=O)N3CCOCC3)ccc21 (configuration not stated)
i,-0.33,C=CC(=O)N(CCC)C(c1ccccc1)c1ccccc1OC (configuration not stated)
i,-0.2,COc1ccc2[nH]c(C(=O)Nc3ccc(F)cc3Br)cc2c1
i,1.11,COc1cccc(CNC(=O)CSc2nnc3c(n2)[nH]c2ccc(C)cc23)c1
i,0.82,COc1cccc(CNC(=O)c2cc(S(=O)(=O)N3CCCCC3)c[nH]2)c1
i,-0.85,COc1ccccc1C1CC(c2ccccc2)=NN1S(=O)(=O)c1ccccc1 (configuration not stated)
i,0.34,Cn1c(NC(=O)c2ccco2)c(-c2ccc(Cl)cc2)c(=O)c2ccccc21
i,-1.3,COc1ccccc1NC(=O)c1ccc(CN2CCOCC2)cc1
i,-1.34,CC(C)(C)NC(=O)CN(Cc1ccc2c(c1)OCO2)C(=O)CNS(=O)(=O)c1ccccc1
i,0.77,O=c1c2ccccc2oc2ccc(NCCCN3CCOCC3)cc12
-6.64*,-0.97*,COc1cc(/C=C(/NC(=O)c2ccccc2)C(=O)Nc2ccccc2)c([N+](=O)[O-])cc1OC
i,-0.04,Cc1ccc(N2CC(C(=O)N3CCc4ccccc43)CC2=O)cc1 (configuration not stated)
i,-0.74,CS(=O)(=O)c1ccc(Cl)c(NC(=O)CSc2nc3ccccc3c(=O)n2CCCN2CCOCC2)c1
i,-0.33,Cc1sc2ncn(CC(=O)N3CCN(c4ccccn4)CC3)c(=O)c2c1S(=O)(=O)N1CCC(C)CC1
i,0.15,c1ccn2c(Cc3nnc4ccccn34)nnc2c1
i,1.05,CCn1c(SCc2nc3ccccc3s2)nnc1-c1ccccc1
i,-0.22,O=c1oc2ccccc2nc1/C=C(O)/C=C/c1ccc(F)cc1

Additional compounds.
KCNQ2 block,KCNQ2 block baseline,molecule
i,-0.15,CCCn1c(N2CCN(Cc3ccc(Cl)cc3)CC2)nc2ccccc21
i,0.81,COc1ccc(-n2c(=S)[nH]c3cc(C(=O)Nc4cc(C(N)=O)ccc4OC)ccc3c2=O)c(OC)c1
i,1.31,CCOC(=O)c1c(NC(=O)COc2ncnc3ccccc23)sc(C)c1C
i,-0.3,O=C(CNC(=O)/C(=C\c1ccc(Br)cc1)NC(=O)c1ccccc1)OCc1ccccc1
i,0.48,N#C/C(=C\c1ccco1)Sc1nc2ccccc2s1
i,0.39,CSc1nc2ccccc2n1C(=O)NC1CCCCC1
i,-1.25,Cc1ccccc1NC(=O)CCN1CCN(C/C=C/c2ccccc2)CC1
i,0.42,O=C1CSC(c2ccccn2)N1c1cccc(Cl)c1 (configuration not stated)
i,-0.28,Cc1nc2scc(C)n2c(=O)c1S(=O)(=O)N1CCN(c2ccc(F)cc2)CC1
i,-0.03,Cc1cc(=O)oc2c(C(=O)/C=C\c3cccs3)c(O)ccc12
i,-0.83,CC(C)C(NC(=O)CN(c1ccc2c(c1)OCCO2)S(=O)(=O)c1ccccc1)C(C)C
i,0.05,CCCCn1nnnc1SCC(=O)c1ccccc1F
i,-0.16,CCOc1cc(C2NC(=O)NC(c3ccccc3)=C2C(=O)c2ccccc2)c(Br)cc1OCC(=O)O (configuration not stated)
i,0.27,COc1ccc(-c2csc(NC(=O)c3ccccc3F)n2)cc1
i,2.35,CC1Cc2ccccc2N1C(=O)CSC1=NCCS1 (configuration not stated)
i,-0.01,O=C(N/C(=C/c1ccc(Br)cc1)C(=O)N1CCCC1)c1cccs1
i,1.96,COc1cc(C)ccc1OCCOc1c(C)cc(Cl)cc1Cl

Only part of the results is shown (hit frequency here may not be typical).
